KRASV12 cytotoxicity: cytotoxicity in KRAS-transformed pancreatic duct cells, primary screen, cell-based, fluorescence, HTS (AID 431); HPDE-C7K KRASV12 cells, Alamar Blue viability, 48 h; higher % means a stronger effect; cytotoxicity, % at 10 µM, or EC50 in µM where a hit was titrated; actives 1.7% (n = 63,000);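 active = compounds whose percent cytotoxicity in the single-dose primary screen, scaled between solvent and toxic-drug controls, exceeds 50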;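 also: 0% = DMSO solvent wells and 100% = doxorubicin-treated wells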
Bfl-1 displacement: Bfl-1 inhibitors, primary screen, biochemical, fluorescence polarization, FITC-Bid, mouse (AID 432). Bcl-2-related protein A1 (Mus musculus). FITC-Bid BH3 peptide fluorescence polarization displacement; higher % means a stronger effect. displacement, % at 20 µM, or IC50 in µM where a hit was titrated. actives 0.02% (n = 64,000); in the data active = a potency from the dose series; inactive = the rest, 99 in 100 with displacement below about 15%; also: strong numbers were not always called active
HPDE-C7 cytotoxicity: cytotoxicity in HPDE-C7 cells, cell-based, fluorescence, HTS (AID 430); HPDE-C7 pancreatic duct cells viability, fluorescence; higher % means a stronger effect; one-dose cytotoxicity, % at 10 µM; EC50 in µM for titrated hits; actives 1.8% (n = 63,000);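 also: cells exposed to compound for 48 hours before viability readout; 0% = vehicle and 100% = reference cytotoxic drug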
HT1080 viability: cytotoxicity in HT1080 fibrosarcoma cells, cell-based, fluorescence readout (AID 620); HT1080 viability, fluorescence; higher % means a stronger effect; one-dose cytotoxicity, % at 10 µM; EC50 in µM for titrated hits; actives 0.42% (n = 87,000);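 also: cells exposed to compound overnight then 4 h with Alamar Blue; 0% = vehicle DMSO and 100% = killing control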
LYP phosphatase: LYP phosphatase inhibitors, primary screen, biochemical, DiFMUP fluorescence, recombinant catalytic domain, 10 µM (AID 606); Tyrosine-protein phosphatase non-receptor type 22 (Homo sapiens); recombinant LYP catalytic domain, DiFMUP fluorescence; higher % means a stronger effect; inhibition, % at 10 µM, or IC50 in µM where a hit was titrated; 52,000 tested, under 10 active;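 active = IC50 under 40 µM in the dose-response test; inactive = IC50 of 40 µM or more, or never dose-tested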
Alkaline phosphatase: human TNAP enzyme inhibitors, biochemical, luminescent (AID 518); purified TNAP enzyme, luminescent substrate readout; higher % means a stronger effect; Alkaline phosphatase, tissue-nonspecific isozyme (Homo sapiens); one-dose inhibition, % at 20 µM; IC50 in µM for titrated hits; actives 0.09% (n = 64,000); in the data active = a potency from the dose series; inactive = the rest, 99 in 100 with inhibition below about 22%;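 also: plate controls were vehicle for no effect and reference inhibitor for full effect; many of its hits are not listed in these tables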
Starred values were filed as active, the others as inactive; nt = not tested or not shown. Rule as the data show it, unless noted: active = cytotoxicity above about 50%; inactive = the rest. Only part of the results is shown; rates above refer to the full screens.

SMILES	KRASV12 cytotoxicity	Bfl-1 displacement	HPDE-C7 cytotoxicity	HT1080 viability	LYP phosphatase	Alkaline phosphatase
Cc1ccc(C(C)NC(=O)c2c(C)noc2C)cc1C (stereo unspecified)	-2%	1%	3%	nt	6%	8%
CC(C)c1ccc(O)c(NC(=O)c2cncc(Br)c2)c1	0%	2%	-10%	8%	8%	10%
Cc1c(NC(=O)CC(O)(C(F)(F)F)C(F)(F)F)c(=O)n(-c2ccccc2)n1C	-3%	4%	4%	0%	4%	6%
CCOc1ccc(OCC)c(NC(=O)CN2CCN(c3ccc(C)cc3C)CC2)c1	-5%	4%	-9%	-23%	-8%	9%
Fc1ccc(OCc2nn3c(Cn4nnc5ccccc54)nnc3s2)cc1	-8%	-2%	2%	-6%	0%	12%
CC(C)CC(c1nnnn1CC1CCCO1)N1CCN(c2nc3ccccc3s2)CC1 (stereo unspecified)	0%	2%	3%	-1%	11%	9%
COc1ccc(C(=O)Nc2nncs2)c(OC)c1	-3%	-6%	1%	nt	8%	10%
Cc1nc2ncnn2c(C)c1CCC(=O)N1CCOCC1	3%	-3%	2%	4%	-2%	2%
CC(C)CC(C(=O)NCc1ccccn1)N1C(=O)c2ccccc2C1=O (stereo unspecified)	-6%	-6%	-1%	-7%	-24%	3%
O=C1NCCCC1C(=O)NCCNC(=O)C(F)(F)F (stereo unspecified)	-7%	-6%	-2%	-7%	10%	3%
Cn1c(SCC(=O)Nc2ccc3c(c2)OCCO3)nnc1-c1ccccn1	-7%	-5%	-6%	7%	nt	4%
Oc1c(CN2CCOCC2)cc(-c2ccccc2)cc1CN1CCOCC1	-4%	-7%	-17%	-2%	-10%	-3%
CCCCCn1c(CNC(=O)CCC)nc2ccccc21	-10%	3%	-16%	-5%	nt	8%
CC(=O)NCCOc1c(C)cc(S(N)(=O)=O)cc1C	-25%	-2%	-17%	-1%	9%	-2%
COc1ccc(Cn2nnnc2C(c2cc3cc(C)cc(C)c3[nH]c2=O)N2CCOCC2)cc1 (stereo unspecified)	-7%	0%	-2%	-4%	6%	16%
Cn1cccc1Cc1nnc(SCC(=O)NCc2ccc(F)cc2)n1-c1ccc(F)cc1	5%	0%	4%	nt	nt	4%
O=C1CC(NC23CC4CC(CC(C4)C2)C3)C(=O)N1c1ccc2c(c1)OCO2 (stereo unspecified)	5%	3%	1%	0%	7%	5%
CCn1cc(C(=O)NCc2cccs2)c(=O)c2ccc(C)nc21	-1%	-2%	-2%	-4%	nt	4%
COC(=O)C1CCN(Cc2cc(=O)oc3cc(OC)ccc23)CC1	-31%	0%	-13%	0%	5%	4%
CCn1c2ccccc2c2nnc(SCC(=O)c3ccccc3)nc21	-9%	-1%	9%	8%	4%	14%

Laid out differently: results already given.
canonical_smiles | KRASV12 cytotoxicity | Bfl-1 displacement | HPDE-C7 cytotoxicity | HT1080 viability | LYP phosphatase | Alkaline phosphatase
Fc1ccc(OCc2nn3c(Cn4nnc5ccccc54)nnc3s2)cc1 | -8% | -2% | 2% | -6% | 0% | 12%
Cc1c(NC(=O)CC(O)(C(F)(F)F)C(F)(F)F)c(=O)n(-c2ccccc2)n1C | -3% | 4% | 4% | 0% | 4% | 6%

Exported as a markdown table: entries from further up
| structure | KRASV12 cytotoxicity | Bfl-1 displacement | HPDE-C7 cytotoxicity | HT1080 viability | LYP phosphatase | Alkaline phosphatase |
| --- | --- | --- | --- | --- | --- | --- |
| Cc1ccc(C(C)NC(=O)c2c(C)noc2C)cc1C (stereo unspecified) | -2% | 1% | 3% | nt | 6% | 8% |
| CC(C)c1ccc(O)c(NC(=O)c2cncc(Br)c2)c1 | 0% | 2% | -10% | 8% | 8% | 10% |
| Cc1c(NC(=O)CC(O)(C(F)(F)F)C(F)(F)F)c(=O)n(-c2ccccc2)n1C | -3% | 4% | 4% | 0% | 4% | 6% |
| CCOc1ccc(OCC)c(NC(=O)CN2CCN(c3ccc(C)cc3C)CC2)c1 | -5% | 4% | -9% | -23% | -8% | 9% |
| Fc1ccc(OCc2nn3c(Cn4nnc5ccccc54)nnc3s2)cc1 | -8% | -2% | 2% | -6% | 0% | 12% |
| CC(C)CC(c1nnnn1CC1CCCO1)N1CCN(c2nc3ccccc3s2)CC1 (stereo unspecified) | 0% | 2% | 3% | -1% | 11% | 9% |
| COc1ccc(C(=O)Nc2nncs2)c(OC)c1 | -3% | -6% | 1% | nt | 8% | 10% |
| Cc1nc2ncnn2c(C)c1CCC(=O)N1CCOCC1 | 3% | -3% | 2% | 4% | -2% | 2% |
| CC(C)CC(C(=O)NCc1ccccn1)N1C(=O)c2ccccc2C1=O (stereo unspecified) | -6% | -6% | -1% | -7% | -24% | 3% |
| O=C1NCCCC1C(=O)NCCNC(=O)C(F)(F)F (stereo unspecified) | -7% | -6% | -2% | -7% | 10% | 3% |
| Cn1c(SCC(=O)Nc2ccc3c(c2)OCCO3)nnc1-c1ccccn1 | -7% | -5% | -6% | 7% | nt | 4% |
| Oc1c(CN2CCOCC2)cc(-c2ccccc2)cc1CN1CCOCC1 | -4% | -7% | -17% | -2% | -10% | -3% |
| CCCCCn1c(CNC(=O)CCC)nc2ccccc21 | -10% | 3% | -16% | -5% | nt | 8% |
| CC(=O)NCCOc1c(C)cc(S(N)(=O)=O)cc1C | -25% | -2% | -17% | -1% | 9% | -2% |
| COc1ccc(Cn2nnnc2C(c2cc3cc(C)cc(C)c3[nH]c2=O)N2CCOCC2)cc1 (stereo unspecified) | -7% | 0% | -2% | -4% | 6% | 16% |
| Cn1cccc1Cc1nnc(SCC(=O)NCc2ccc(F)cc2)n1-c1ccc(F)cc1 | 5% | 0% | 4% | nt | nt | 4% |
| O=C1CC(NC23CC4CC(CC(C4)C2)C3)C(=O)N1c1ccc2c(c1)OCO2 (stereo unspecified) | 5% | 3% | 1% | 0% | 7% | 5% |
| CCn1cc(C(=O)NCc2cccs2)c(=O)c2ccc(C)nc21 | -1% | -2% | -2% | -4% | nt | 4% |
| COC(=O)C1CCN(Cc2cc(=O)oc3cc(OC)ccc23)CC1 | -31% | 0% | -13% | 0% | 5% | 4% |

Continued:
SMILES	KRASV12 cytotoxicity	Bfl-1 displacement	HPDE-C7 cytotoxicity	HT1080 viability	LYP phosphatase	Alkaline phosphatase
CCOC(=O)N1CCN(CC(=O)Nc2c(C(=O)OC)[nH]c3ccc(Cl)cc23)CC1	-17%	-9%	-18%	2%	nt	14%
CCSc1nnc(-c2ccc(S(=O)(=O)N3CCOCC3)cc2)n1CC1CCCO1 (stereo unspecified)	14%	-4%	3%	-1%	nt	10%
CCN(Cc1ccccc1)Cc1cc(OC)cc(OC)c1	13%	-5%	8%	-3%	nt	6%
O=C(NC(C(=O)c1ccccc1)n1ccc(=O)[nH]c1=O)c1ccccc1 (stereo unspecified)	-12%	-5%	23%	2%	-9%	2%
CN1CCN(c2nc3c(c(=O)n(C)c(=O)n3C)n2Cc2cccc3ccccc23)CC1	4%	-2%	3%	-6%	9%	12%
CCOc1cc(CN2CCN(c3cccc(C(F)(F)F)c3)CC2)ccc1O	nt	-2%	nt	-7%	nt	10%
CCOC(=O)C1CCN(C(=O)CC2C(=O)N(Cc3ccccc3)C(C)c3nc4ccccc4n32)CC1 (stereo unspecified)	3%	-14%	-11%	-4%	nt	5%
O=C(c1cccs1)N1CCC(N2CCN(c3ccccc3)CC2)CC1	6%	-7%	17%	4%	11%	5%
CC(=O)SCCC(=O)N1C(C)CCCC1C(=O)O (stereo unspecified)	1%	2%	2%	24%	nt	7%
COc1ccccc1N1CCN(Cc2ccc(Br)o2)CC1	4%	-1%	1%	-10%	nt	8%
Cc1scc(C(=O)Nn2cnnc2)c1-c1ccccc1	-9%	2%	-15%	-6%	-4%	5%
CCOC(=O)C1CCN(Cc2c(F)cccc2Cl)CC1	9%	-8%	7%	8%	-3%	8%
CC1(N2CCOCC2)CC2(O)C(=[N+]1[O-])CCc1nonc12 (stereo unspecified)	18%	5%	13%	-8%	10%	28%
Cc1cc(S(=O)(=O)N2CCN(c3c(C)cccc3C)CC2)ccc1F	nt	nt	nt	1%	15%	nt
Nc1nnc(-c2ccc(F)cc2)s1	7%	-2%	-5%	-5%	3%	5%
O=C(NCc1n[nH]c(=S)n1-c1ccc(F)cc1)c1ccco1	24%	3%	19%	3%	2%	20%
CCOC(=O)N1CCN(CC(=O)Nc2cc(OCC)ccc2OCC)CC1	-2%	-5%	-10%	0%	-2%	4%
COc1ccc(OC)c2c(N3CCN(C)CC3)cc(C(F)(F)F)nc12	-6%	-3%	-3%	-7%	-6%	3%
COC(=O)CNc1c(-c2ccccn2)nc2ccc(Br)cn12	-14%	-1%	-6%	4%	14%	8%
CN(C)c1ccc(C(=O)Nc2ccc(S(=O)(=O)NC3=NCCCCC3)cc2)cc1	0%	-2%	-11%	2%	4%	9%
CCOc1ncccc1C(=O)OCC(=O)N1CCN(S(=O)(=O)c2ccc(Cl)cc2)CC1	5%	3%	-2%	-5%	4%	12%
CCc1cc(=O)oc2cc(OCC(=O)OC)c(Cl)cc12	-13%	-6%	-14%	-5%	-3%	0%
COc1ccc(O)c(-c2cn[nH]c2-c2cccs2)c1	-6%	-3%	1%	-8%	11%	14%
O=C(NCc1ccco1)C1CCN(S(=O)(=O)N2CCOCC2)CC1	2%	0%	-9%	3%	1%	6%
COCCn1cc(C(=O)c2ccccc2OCC(=O)Nc2cc(C)on2)cc(C#N)c1=O	-28%	-2%	-37%	-5%	-2%	9%

Screening results as filed in PubChem.
